# Screening data: PubChem BioAssay, National Center for Advancing Translational Sciences (NCATS)
# D2 ag: Beta-Arrestin HTS for Positive Allosteric Modulators of the Human D2 Dopamine Receptor: Agonists. DiscoveRx PathHunter D2 beta-arrestin, luminescence, 90 min; 100% = 57 uM dopamine signal. hit rate 0.084% among 360,000. D(2) dopamine receptor (Homo sapiens), P14416. activation, % (concentration not given with the values); in the data active = activation above about 40%; inconclusive = about 15% to 40%; inactive = below about 15%; also: compound concentration not given in the record; the text of the record calls up to 30% inactive
# Target sequence (P14416 whole entry, looked up): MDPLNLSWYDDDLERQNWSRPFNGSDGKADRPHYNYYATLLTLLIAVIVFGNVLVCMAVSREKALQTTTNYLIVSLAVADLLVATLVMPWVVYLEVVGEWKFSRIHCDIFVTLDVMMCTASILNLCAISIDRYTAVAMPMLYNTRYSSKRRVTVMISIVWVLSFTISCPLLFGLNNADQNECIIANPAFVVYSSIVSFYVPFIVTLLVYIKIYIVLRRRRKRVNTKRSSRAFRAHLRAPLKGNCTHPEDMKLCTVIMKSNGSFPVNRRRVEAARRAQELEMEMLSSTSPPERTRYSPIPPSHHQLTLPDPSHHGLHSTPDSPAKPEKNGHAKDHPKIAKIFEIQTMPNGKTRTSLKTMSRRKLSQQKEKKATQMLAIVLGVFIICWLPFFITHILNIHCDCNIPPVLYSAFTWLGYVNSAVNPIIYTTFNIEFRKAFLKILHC
#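 DiscoveRx PathHunter D2 beta-arrestin cells (2,100/well) attached overnight, then compound-stimulated 90 min at 37 C in HBSS/10 mM HEPES/0.1% Tween-20 buffer; beta-galactosidase complementation read by luminescence after 1 h at ambient temperature. Dopamine 57 uM final (EC100) as control.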
# ClpP mod: qHTS Assay for Activators of ClpP | Potency, µM (series often up to 57.5 µM), for the others: top-dose activity change, negative = active | ATP-dependent Clp protease proteolytic subunit (Bacillus subtilis (strain 168)), P80244 | hit rate 1.9% among 340,000 | AID 651965, 2013 | purified B. subtilis ClpP, FRET peptide cleavage, 20 min; active = well fitted falling curve with a large enough effect; inconclusive = small, poorly fitted or top-dose-only effect; inactive = no such curve, though single readings can be large or run the other way; also: potency is read from the fitted curve at half-maximal effect; the source files actives as falling curves though it sought activators and does not explain the sign; nearly all actives have a fitted effect of over 65% in size; many hits overshoot -100%
# Target sequence (P80244 whole entry, looked up): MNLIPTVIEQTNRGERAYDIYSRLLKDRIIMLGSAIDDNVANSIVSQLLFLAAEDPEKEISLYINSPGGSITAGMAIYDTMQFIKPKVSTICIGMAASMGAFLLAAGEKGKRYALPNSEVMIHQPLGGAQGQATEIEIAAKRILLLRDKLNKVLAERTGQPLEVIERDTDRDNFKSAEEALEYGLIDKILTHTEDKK
#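 Buffer: 100 mM Tris/HCl pH8, 100 mM KCl, 0.05% low protease BSA, 2.5% glycerol, 0.01% Tween-20. ClpP 10 microg/mL final; 20 min RT; delta FRET normalized to ADEP and DMSO controls.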
# gsp agonist: qHTS for Agonist of gsp, the Etiologic Mutation Responsible for Fibrous Dysplasia/McCune-Albright Syndrome: qHTS. hit rate 0.13% among 340,000. gsp mutant cells, cAMP HTRF, 30 min; control for the full effect not named in the record. Potency, µM (highest dose often 76.9 µM), for the others: top-dose activation (cAMP increase), actives largely listed as activators; active = well fitted activation curve with a large enough effect; inconclusive = small, poorly fitted or top-dose-only effect, or another doubt; inactive = no such curve, though single readings can be large or run the other way; cell line not stated here;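 also: phosphodiesterase inhibitor Ro 20-1724 added with compounds to block cAMP breakdown; potency is read from the fitted curve at half-maximal effect; nearly all actives have a fitted effect of over 60% in size; about a fifth of the inactives were tested at one dose only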
#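 Cells stably selected in G418 were plated at 2000/well, grown 16-24 hr, then given compounds in DMSO with the PDE inhibitor […] (300 uM solution added) for 30 min at 37C; cAMP was read by HTRF.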
# gsp antagonist: qHTS for Antagonists of gsp, the Etiologic Mutation Responsible for Fibrous Dysplasia/McCune-Albright Syndrome: qHTS; gsp-mutant cells, cAMP HTRF, 30 min; control for the full effect not named in the record; Potency, µM (series often up to 76.9 µM), inactives show at the top dose activity change, negative = inhibition, hits mostly inhibitors; hit rate 0.4% among 340,000; active = falling curve of any shape with a large fitted effect; inconclusive = falling curve, mostly with a smaller effect; inactive = flat or rising curve; cell line not stated here;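 also: intracellular cAMP measured with PDE inhibitor Ro 20-1724 present during compound exposure; potency is read from the fitted curve at half-maximal effect; % is scaled to controls: 0 for no effect and ±100 for the full control effect; nearly all actives have a fitted effect of over 65% in size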
#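 Cells in G418 medium, seeded 16-24 h, 37C; buffer exchange to DPBS + 1 mM CaCl2, 0.5 mM MgCl2, 0.05% BSA; cpds in DMSO + […] (300 uM stock), 30 min 37C; HTRF cAMP detection.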
# Menin MLL FP FL: qHTS Assay for Inhibitors Targeting the Menin-MLL Interaction in MLL Related Leukemias: Competition With Fluorescein Labeled MLL-derived Peptide; AID 1766, 2009; 290,000 tested, under 10 active; FP activity change, % at 61.4 µM; Fluorescence polarization, fluorescein-MLL peptide displacement from menin; inconclusive = falling polarisation curve, or a change in total fluorescence; inactive = total fluorescence flat and polarisation flat or rising; no compound was filed as active; the % refers to the polarisation; negative = inhibition;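 also: % of control where 0% means no effect; inhibitors lower the polarisation; unlabelled MLL peptide was the positive control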
# Sfp PPTase inh: qHTS Assay for Inhibitors of Bacillus subtilis Sfp phosphopantetheinyl transferase (PPTase). 4'-phosphopantetheinyl transferase ffp (Bacillus subtilis), Q9F4F7. Biochemical Sfp PPTase activity, qHTS. Potency, µM, for the others: max response, negative = inhibition, hits mostly inhibitors. hit rate 3.5% among 310,000; active = well fitted inhibition curve with a large enough effect; inconclusive = small, poorly fitted or top-dose-only effect, or another doubt; inactive = no such curve, though single readings can be large or run the other way;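 also: the enzyme is Sfp with the accession as filed and its product quenches rhodamine fluorescence; potency is read from the fitted curve at half-maximal effect; 0% = enzyme reaction without inhibitor and -100% = no enzyme wells; top concentration of the series not given in the record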
#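 With Hepes-Na pH 7.6 buffer containing 10 mM MgCl2, Sfp (15 nM) modified BHQ-2-YbbR (12.5 uM) using rhodamine-CoA (5 uM). Two reads 30 minutes apart at 525/598 nm yielded each well's rate.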
# PINK1 expr mod: A Quantitative High throughput Screen to Identify Chemical Modulators of PINK1 Expression | AID 624263, 2012 | Potency, µM (series often up to 76.6 µM), for the others: at the top dose activation (PINK1 increase), hits mostly activators | PINK1 immunofluorescence, high-content cytometry, 24 h | hit rate 0.2% among 410,000; active = well fitted activation curve with a large enough effect; inconclusive = small, poorly fitted or top-dose-only effect; inactive = flat fitted curve, though single readings scatter; cell line not stated here;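 also: potency is read from the fitted curve at half-maximal effect; % of control where 0% means no effect; nearly all actives have a fitted effect of over 65% in size; a mitochondrial uncoupler was the plate control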
#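 Cells are seeded, rested 12 hours, then given compound at five concentrations or DMSO for 24 hours. After fixation, blocking and antibody staining, PINK1 amount and mitochondrial localization are scored; CCCP serves as control.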
# Numbers without * were called inactive; u = inconclusive; x = no result given; & = joins results of further samples; [ ] = remark or other dose.
SMILES,D2 ag,ClpP mod,gsp agonist,gsp antagonist,Menin MLL FP FL,Sfp PPTase inh,PINK1 expr mod
CCc1ccccc1NC(=O)C1COc2ccccc2O1 (stereo unspecified),0.4,-2.1%,9%[15.4 µM],-8%,2.2,3%,-0.1%
O=C(C[n+]1ccccc1)N/N=C/c1ccccc1C(F)(F)F,-4.6,1.5%,-40%[inhibitor],10%,3.6,7%,-0.8%
CCCCNC(=S)NNC(=O)c1sccc1C,-3.6,26%,-9%,-1%,2.3,14%,0.0%[38.3 µM]
COC(=O)c1ccc(C)c(NC(=O)CCc2ccc(OC)cc2)c1,0.1,1.0%,-36%[inhibitor],4%,4.5,89µM*,7.4%
CCN(CC)c1ncnc2c1nnn2C,0.2,x,u,10%,x,x,0.2%
O=C(Nc1cccc(F)c1)C1CCCN(S(=O)(=O)c2cccc3cccnc23)C1 (stereo unspecified),-2.7,-0.7%&0.7%,-4%,-23%,x,8%,0.1%&0.2%
COc1cccc(-c2nc(CS(=O)(=O)CC(=O)NCCc3cc(OC)ccc3OC)c(C)o2)c1,-2.0,x,u,-19%,0.3,-3%,1.9%
CC(C)OP(=O)(c1ccc(N(C)C)cc1)C(O)c1ccc(N(C)C)cc1 (stereo unspecified),-5.3,-6.7%,23%,2%,2.1,10%,-0.4%
CCn1c(=O)cc(OCC(=O)N(C)C2CCCCC2)c2ccccc21,-2.7,-2.8%,-8%,-17%,-1.2,3%,x
CC(=O)c1c(N2CCCCC2)nc(=S)n(-c2ccccc2)c1C,0.3,-1.5%,0%,9%,6.8,-4%,1.9%
O=C(CC12CC3CC(C1)CC(CC(=O)N1CCCC1)(C3)C2)N1CCCC1,0.4,-1.9%,-32%[inhibitor],3%,0.1,2%,-4.8%[38.3 µM]
NC(=O)c1cccnc1Oc1ccc(Cl)cc1Cl,-2.8,x,20%,1%,1.7,8%,-1.5%
CCCCCCCCS(=O)c1sc2nc(C)cc(C)c2c1N (stereo unspecified),-0.3,-24%,-19%,-4%,1.8,45µM*,0.2%
CC1(C)CC(NS(=O)(=O)c2cccc3ccccc23)CC(C)(C)N1,-10,-14%,-6%[15.4 µM],7%,x,11%,0.2%
COc1ccc(C)cc1S(=O)(=O)N(CC(=O)N1CCCC1)c1ccc(C)cc1,0.0,1.9%,-4%,12%,x,x,2.0%
C=CCn1c(SCCC)nc(O)cc1=O,-0.9,1.0%,-38%,-10%,4.5,-4%,8.0%[38.3 µM]
CCc1ccc(NC(=O)CSc2nnc(Cc3cccn3C)n2-c2ccc(F)cc2)cc1,-2.2,9.6%,u,-8%,14,14%,-1.4%
CCCOC(=O)c1ccc(NC(=O)c2ccccc2OC)cc1,-2.8,x,11%[15.4 µM],-16%,-6.8,u,2.4%
CCOC(=O)N1CCN(C(=O)Cn2c(C)cc3ccccc3c2=O)CC1,-1.1,5.0%,14%,4%,-1.4,11%,2.3%
COC(=O)c1ccc(NC(=O)C(=O)N2CCN(C(=S)Nc3cccc(OC)c3)CC2)cc1,1.5,-3.6%,7%,-12%,-1.1,1%,2.1%
CCCSc1nnc(CN2CCOCC2)n1C,-0.8,-1.1%,1%,6%,1.8,16%,-0.2%
CCOC(=O)c1cccc(NC(=S)N2CCN(c3ncc4c(=O)c(C(=O)O)cn(CC)c4n3)CC2)c1,-2.8,x,-5%[15.4 µM],6%,1.9,9%,-0.2%
COc1ccc(C)cc1S(=O)(=O)N(CC(=O)Nc1cccc([N+](=O)[O-])c1)c1cc(C)cc(C)c1,0.5,-0.8%,-2%,1%,2.4,23%,6.4%[38.3 µM]
COc1ccc(OC)c(S(=O)(=O)n2cnc3cc(C)c(C)cc32)c1,-5.0,-6.0%,-2%,-23%,1.4,6%,1.5%
CCS(=O)(=O)c1ccc(O)c(NC(=O)Nc2ccc(C(C)(C)C)cc2)c1,-4.5,-0.5%,0%[15.4 µM],u,1.9,13%,4.6%
# Other structures:
SMILES,D2 ag,ClpP mod,gsp agonist,gsp antagonist,Menin MLL FP FL,Sfp PPTase inh,PINK1 expr mod
O=C(CNC(=O)C1CCCC1)Nc1ccccc1Br,-3.5,0.6%,9%,8%,x,x,-2.4%
COc1ccc(NC(=O)C(c2ccc(C)cc2)N(C)C(=O)Cc2cccs2)cc1 (stereo unspecified),7.3,0.0%&0.8%,-8%[15.4 µM],-9%,9.5,-6%,1.2%&2.4%
Cc1cc(-c2csc(NC(=O)c3cc4ccccc4o3)n2)c(C)n1C,-1.8,-2.7%,3%,2%,1.5,0%,18%[38.3 µM]
CC1(C)Nc2ccccc2C(=O)N1c1ccccc1,4.2,x,2%,-5%,2.2,15%,0.3%
COc1ccc(-c2cc(C(=O)Nc3cc(OC)c(OC)c(OC)c3)no2)cc1,4.0,-2.3%,16%,3%,2.1,0%,-1.4%
O=C1CCCCC1C(Nc1ccc(Br)cc1)c1ccccc1 (stereo unspecified),-1.9,1.8%,-1%[15.4 µM],u,5.1,-10%,10%
O=C1CC(c2ccc(F)cc2)C(n2cncn2)C(O)=C1C1NCCc2ccccc21 (stereo unspecified),-2.7,x,18%[15.4 µM],-16%,-0.4,21%,1.9%
O=C(c1ccccc1-c1nc(-c2ccc(Cl)cc2)no1)N1CCCC1,-2.4,1.1%,-32%,-8%,0.2,-4%,2.4%[38.3 µM]
Nc1ccc(Nc2ccccc2N)cc1,5.4,-22%,-30%[inhibitor],-10%,5.4,3%,3.5%[38.3 µM]
Cc1ccc(NC(=O)c2cccc3c2C(=O)N(C2CCCCC2)C3)cc1,-0.3,-5.4%,-25%,-1%,-0.5,2%,7.4%
CC1(C)OC(=O)C=C(CC2NS(=O)(=O)OC3CCCCC23)O1 (stereo unspecified),-2.8,-0.6%,x,5%,-0.9,1%,0.6%
COc1ccnc(Oc2ccc(C)cc2C)c1C#N,1.4,1.6%,-57%,-21%,1.5,-1%,0.6%[38.3 µM]
O=C(OCCN=C1NS(=O)(=O)c2ccccc21)c1cccc([N+](=O)[O-])c1,-1.9,x,-9%,-3%,-3.9,1%,1.8%
O=C(C[C@H]1C/C=C\CC[C@@H](Cc2ccc(F)cc2)C(=O)OC[C@H]2CCCN2C1=O)N[C@H](CO)Cc1ccccc1,-1.1,-2.2%,x,-14%,x,x,-0.3%
CCN(C(=O)CN1C(=O)c2ccc([N+](=O)[O-])cc2C1=O)C1CCCCC1,u,-1.9%,16%,u,x,-2%,0.2%
COc1ccc(Cc2nnc(NC(=O)c3ccccc3Cl)s2)cc1OC,2.3,0.7%,u,-15%,3.4,24%,-0.3%
O=C(Nc1nc(-c2nc3ccccc3s2)cs1)C1COc2ccccc2O1 (stereo unspecified),2.7,5.0%,11µM*,-22%,1.7,12%,4.4%
COc1cc(SC)ccc1C(=O)OCC(=O)N1CC(=O)Nc2ccccc21,-4.4,-2.3%,-6%[15.4 µM],-11%,x,x,-1.2%
CC(C)(C)OC(=O)NCc1ccc(NC(=O)c2nc[nH]c2C(=O)NCCNC(=O)c2[nH]cnc2C(=O)Nc2ccc(CNC(=O)OC(C)(C)C)cc2)cc1,-1.2,121%,x,-3%,x,x,2.8%
C/C(=N\NC(=O)C1CC1)c1ccc(C(C)(C)C)cc1,-6.8,4.1%,0%,4%,x,3%,-1.2%
Cc1ccnc(Sc2ccc([N+](=O)[O-])cn2)n1,-3.4,-0.2%,-37%[inhibitor],4%,-2.2,-1%,0.0%
CC1CCN(c2ccc([N+](=O)[O-])c(SCCO)c2)CC1,-4.1,x,0%,-16%,0.9,-1%,2.7%
O=P(CCN1CCCCC1)(c1ccccc1)c1ccccc1,-2.4,-1.4%,-2%,11%,4.1,22%,-0.3%
OC[C@H](S)CS,x,-0.3%,x,x,6.4,2.2µM*,5.9%
COc1ccc(OC)c(NC(=O)Cn2c(-c3ccc(Cl)cc3)noc2=O)c1,5.5,1.5%,-4%,7%,-0.3,25%,1.3%[38.3 µM]
# The list continues:
SMILES,D2 ag,ClpP mod,gsp agonist,gsp antagonist,Menin MLL FP FL,Sfp PPTase inh,PINK1 expr mod
Oc1ccccc1OCc1nc2ccccc2s1,-0.6,0.3%,-11%,-9%,3.9,u,0.4%[38.3 µM]
N#Cc1ccc(Oc2ccc(/C=N/O)cn2)cc1,-1.5,-1.0%,-31%[inhibitor],-3%[15.4 µM],-2.3,6%,-1.9%
Cc1nc(C(=O)Nc2ccc(F)cc2)nn1-c1ccc([N+](=O)[O-])cc1,-2.1,0.3%,7%,5%,6.7,2%,-1.3%[38.3 µM]
CCOC(=O)/C(=N/Nc1ccccc1)Sc1nnc(CCc2ccccc2)n1-c1ccccc1,-7.6,x,17%[15.4 µM],-12%,-11,11%,-1.6%
CC(=O)c1c(C)[nH]c(C(=O)Nc2ccccc2Cl)c1C,-2.5,x,u,-6%,-0.3,6%,-1.6%
COc1cc2nc(N(CCCN(C)C)C(=O)c3ccc(C(=O)c4ccccc4)cc3)sc2cc1OC,-0.6,-0.4%,u,-8%,x,x,-2.3%
C=CCN1C(=O)/C(=C/c2ccc(OC)cc2)S/C1=N/c1nccs1,-4.9,-0.5%,23%[15.4 µM],-17%,5.9,0%,9.6%
Cc1c(C(=O)N2CCCC2)c(S(=O)(=O)NCC(C)c2ccccc2)c(C)n1C (stereo unspecified),6.2,-3.3%,19%,2%,x,-3%,1.0%
